# From PubChem
# NPYLR7 agonist – mosquito NPYLR7 agonism; HEK293T NPYLR7/Galpha15, GCaMP6s calcium fluorescence; activation, % at 10 µM; 270,000 compounds, 0.15% hits; AID 1259423; in the data active = activation above about 40%;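 note: 0% = vehicle and 100% = reference agonist at the receptor; some compounds past the cut are filed as inactive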
# NPYLR7 agonist max-min – further read-out of NPYLR7 agonist, marked with its call; activation, %; measured here: Max-Min RFU normalised activation; some inactives read as strong as hits;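 span of the calcium signal over five minutes; 0% = vehicle and 100% = native peptide agonist; compound fluorescence can raise it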
# An asterisk follows results filed as active; & = joins results of further samples.
SMILES,NPYLR7 agonist,NPYLR7 agonist max-min
Cc1cc(C)c[n+](C2=C(c3c(C)[nH]n(-c4ccc(F)cc4)c3=O)C(=O)N(C(C)C)C2=O)c1,-6,-4
CCOCCCN(CC(=O)N(Cc1ccc(F)cc1)Cc1ccc(C)o1)C(=O)c1ccc2c(c1)OCO2,-11,-3
COc1ccc(C(=O)N2C(C(=O)O)COC23CCN(C(=O)c2cccc(F)c2)CC3)cc1 (stereo not drawn),14,23
CCOC(=O)C1CCN(C(=O)CC(c2cccc(OC)c2OC)c2c[nH]c3ccccc23)CC1 (stereo not drawn),4,8
COc1cc(C(=O)NS(=O)(=O)c2cc(Cl)sc2Cl)cc(Cl)c1OC,-5,-7
CCc1ccc(NC(=O)CSc2nc3c(-c4ccccc4)c[nH]c3c(=O)n2C)cc1,-2,-8
NC(=O)c1ccccc1O,-6,-6
CCc1nnc(-c2cc3ccccc3n2CC(=O)c2ccccc2)o1,-1,-1
COc1ccc2[nH]c3c(c2c1)C[C@H]1C[C@H]3[C@@H](OC)CN1,28,24
O=C(Nc1nc2c(s1)CCC2)C1CCCN(C(=O)c2cccs2)C1 (stereo not drawn),3,2
CC(C)(C)C(=O)NC1(C(F)(F)F)N=C(c2ccccc2)NC1=O (stereo not drawn),-2,-4
C=CCN1C(=O)NC(=O)/C(=C/c2ccc(OCc3ccccc3F)cc2)C1=O,13,11
CNC(=O)c1nc(CN2CCC(N3CCCC3=O)CC2)no1,5,0
Cc1ccc(C)c(Cn2c(=O)c3c(nc4n(CCN5CCOCC5)c(C)cn34)n(C)c2=O)c1,0,10
O=C(CN1C(=O)C(Oc2ccccc2)C1c1ccccc1)Nc1ccccc1Nc1ccccc1 (stereo not drawn),6,8
O=C(O)c1ccccc1CN1CCCN2CCC[C@H]2C1,2,1
CN(C)CC1(O)CCN(C(=O)c2cccc3ccnn23)C1 (stereo not drawn),5,4
COc1cccc(COC2CN(CCc3ccccc3)C(=O)CN(C(=O)c3cccnc3)C2)c1 (stereo not drawn),5,-3
COCCCN(Cc1ccc(OC)cc1)CC(C)(C)O,-1,9
COCC(C)(C)CNC(=O)C1CC=CCC1 (stereo not drawn),-1,0
COC(=O)c1ccccc1NS(=O)(=O)c1cccs1,2,3
COc1nn(C)cc1C(=O)NC1=NCCS1,3,2
C=CC=CSCC(=O)N=c1c(C#N)cc2c(=O)n3cccc(C)c3nc2n1CCOC,2,0
CNc1nc(-c2cccnc2)cn2ccnc12,-1,-1
CCc1nnc(N/N=C\c2cc(Cl)c(OCc3ccccc3F)c(OC)c2)n1N,-10,-15

# Rewritten with bars between the fields: two of the compounds above.
smiles | NPYLR7 agonist | NPYLR7 agonist max-min
CNc1nc(-c2cccnc2)cn2ccnc12 | -1 | -1
O=C(Nc1nc2c(s1)CCC2)C1CCCN(C(=O)c2cccs2)C1 (stereo not drawn) | 3 | 2

# Remaining list, next part
SMILES,NPYLR7 agonist,NPYLR7 agonist max-min
Cc1ccc2[nH]c(CN(C)Cc3nc(-c4cccnc4)no3)nc2c1C,-6,-10
OCCCCn1cnc(-c2ccccc2)c1-c1ccc2cccc(Cl)c2n1,-6,-12
Cc1cc(C(=O)N2C[C@H]3CC[C@H]2C3)c2cc(F)ccc2n1,3,0
Cc1ccc(C(NC(=O)CN2CCC(C)C2)c2cccs2)cc1 (stereo not drawn),4,5
Cc1ccc(-n2nc3c(c2NC(=O)C(C)C)CSC3)cc1C,-3,-4
OCC1(CCCc2ccccc2)CCN(Cc2cc(Cl)ccc2O)CC1,15&30,3&29
Fc1cccc(-c2cncc(N3CCN(CCN4CCCC4)CC3)n2)c1,-7,-10
COc1ccc(CCNC(=O)c2ccc(-c3cc(-c4cccc5ccccc45)[nH]n3)cc2)cc1OC,10,8
CC(C)CC(NC(=O)c1ccccc1)C(=O)N1CCCC1c1nnc2c(C(F)(F)F)cccn12 (stereo not drawn),-15,-20
CC1CN(C)CCCN1C(=O)c1cc(-c2cnn(C(C)C)c2)nc2ccc(F)cc12 (stereo not drawn),-4,4
Cc1ccc(Oc2cnn(C)c(=O)c2Nc2cccc(C(=O)N3CCCC3)c2)c(C)c1,5,9
CN(C)c1nc(N)nc(CN2c3cccc4cccc(c34)S2(=O)=O)n1,5,2
OCCn1c(CSc2nc3ccccc3o2)nc2ccc(Cl)cc21,11,13
CC(=O)c1ccc(N2CCN(C(=O)c3csc(-c4cc5ccccc5n4C)n3)CC2)cc1,5,2
CCOc1ccccc1NC(=O)CCN1CCC(C(=O)NC)C1 (stereo not drawn),-2,-6
CCOCCN1N=C(C)Cn2c1nc1c2c(=O)n(CC(C)C)c(=O)n1C,10,10
CCC(C(=O)OC)n1cnc2c(nnn2-c2ccccc2)c1=O (stereo not drawn),6,5
O=C(c1ccc(Cl)c(Cl)c1)N1CCN(C(C(=O)N2CCSCC2)C2CCCC2)CC1 (stereo not drawn),-7,50
CCCCOCCOCC(=O)N1CCC(n2c(C)nc3ccc(F)cc32)CC1,2,-3
CN(CCOC(=O)c1ccn[nH]1)c1ccccc1,0,-2
CCc1nc2n(n1)C(=O)C(C(c1ccc(C(F)(F)F)cc1)N1CCN(C(C)=O)CC1)S2 (stereo not drawn),-4,-9
CCOC(=O)c1nn(CCCc2ccccc2)c2c1CN(Cc1nc3ccccc3[nH]1)CC2,14,0
COc1cccc(-c2cnc(C(O)c3cc(C)cc(C)c3)[nH]2)c1 (stereo not drawn),3,0
Cc1nn(C)c(C)c1-c1ccnc(NCc2ccc3c(c2)OCCCO3)n1,8,7
CCCCN(C(=O)CN1CC(C)OC(C)C1)c1c(N)n(CC(C)C)c(=O)[nH]c1=O (stereo not drawn),-7,-8

# As entered above:
# CCOCCN1N=C(C)Cn2c1nc1c2c(=O)n(CC(C)C)c(=O)n1C in NPYLR7 agonist → 10
# Cc1ccc(C)c(Cn2c(=O)c3c(nc4n(CCN5CCOCC5)c(C)cn34)n(C)c2=O)c1 in NPYLR7 agonist max-min → 10
# Cc1ccc2[nH]c(CN(C)Cc3nc(-c4cccnc4)no3)nc2c1C in NPYLR7 agonist max-min → -10

# (further entries)
SMILES,NPYLR7 agonist,NPYLR7 agonist max-min
CCN(CC(C)C#N)c1nccc(C(F)(F)F)n1 (stereo not drawn),5,5
O=C(C1=C(O)C(=O)N(CCCN2CCOCC2)C1c1ccc(Cl)c(Cl)c1)c1ccco1 (stereo not drawn),8,7
Cc1ccc(CN(C)C(C)c2nc(C)no2)c(C)c1 (stereo not drawn),-6,-10
Fc1ccc(Cc2nc(CSc3cccs3)cs2)c(Cl)c1,5,0
CCOC(=O)C1(CCc2ccccc2)CCCN(Cc2ccncc2)C1 (stereo not drawn),19,14
COc1ccc(C(C)=O)cc1CN1C(=O)C(C)ON=C1c1ccccc1 (stereo not drawn),-3,-4
CCc1ccc(NC(=Nc2nc(C)cc(C)n2)NC(=O)c2ccccc2)cc1,-6,-12
CC(Oc1cccc(Br)c1)C(=O)N1CCC(O)CC1 (stereo not drawn),10,11
Cc1nc(N2CCC(C(=O)N(C)CC3COCCO3)CC2)nc2ccccc12 (stereo not drawn),23,12
CC(C)CN(CC(=O)N(CCc1c[nH]c2ccccc12)Cc1ccc(Cl)c(Cl)c1)C(=O)C(C)(C)CCl,14,4
C=CCn1cnc2c(nnn2-c2cccc(F)c2)c1=O,-4,-8
COc1ccccc1CN1CC(C(=O)N2CCN(C(=O)c3ccco3)CC2)CCC1=O (stereo not drawn),3,3
CCCCc1cnc2c(c1SCC(=O)Nc1nc(C)cs1)c(=O)n(C)c(=O)n2C,0,5
Cc1cc(C(C)(C)C)ccc1OCC(=O)N=Nc1c(O)[nH]c2ccccc12,1,-8
COC(=O)NC1CCN(c2ccccc2C(=O)NCCc2cccs2)CC1,7,20
O=C(CCC(=O)N1CCc2ccccc2C1)Nc1ccccc1,-5,-9
CC(=O)N1CCOCC1c1cc(C(=O)NCc2ccccc2)no1 (stereo not drawn),4,1
N#Cc1ccc(F)c(CSc2ncc(-c3ccc(F)cc3)[nH]2)c1,5,3
Cc1nc(Cn2c(C)c(C(=O)N(C)Cc3ccc(F)cc3)sc2=O)cs1,12,7
Cc1c(C)n2c3c(=O)[nH]c(=O)n(C)c3nc2n1C(C)C,5,4
O=C(CCC(F)(F)F)N1CCC2(CCCN(CCCc3ccccc3)C2)C1 (stereo not drawn),6,7
Cc1nn2c(Nc3ccncc3)cc(C(C)C)nc2c1-c1ccccc1,18,19
CN1[C@H]2CC[C@@H]1CN(C(=O)CSc1ccc(Cl)cc1)CC2,1,-6
COc1cc(CN2CCC(C(=O)NC(C)c3ccc(OC)c(OC)c3)CC2)cc(OC)c1 (stereo not drawn),10,4
CCOC(=O)c1csc(CN(CCOC)C(=O)Nc2ccc(Cl)c(Cl)c2)n1,-5,-17

# Grouped by structure: those above with a CF3 group.
SMILES,NPYLR7 agonist,NPYLR7 agonist max-min
CC(C)(C)C(=O)NC1(C(F)(F)F)N=C(c2ccccc2)NC1=O (stereo not drawn),-2,-4
CC(C)CC(NC(=O)c1ccccc1)C(=O)N1CCCC1c1nnc2c(C(F)(F)F)cccn12 (stereo not drawn),-15,-20
CCc1nc2n(n1)C(=O)C(C(c1ccc(C(F)(F)F)cc1)N1CCN(C(C)=O)CC1)S2 (stereo not drawn),-4,-9
CCN(CC(C)C#N)c1nccc(C(F)(F)F)n1 (stereo not drawn),5,5
O=C(CCC(F)(F)F)N1CCC2(CCCN(CCCc3ccccc3)C2)C1 (stereo not drawn),6,7

# Continued:
SMILES,NPYLR7 agonist,NPYLR7 agonist max-min
O=C(CN1CN(c2ccccc2)C2(CCN(C(=O)c3cccc(Br)c3)CC2)C1=O)N1CCCC1,-3,-9
CSc1ccc(CN(C)C(C)C(=O)Nc2c(C)cccc2C)cc1 (stereo not drawn),3,10
Cc1nc(C(C)C)[nH]c(=O)c1C(=O)N1CCN(c2cccs2)CC1,0,983
O=C1C2C3C=CC(C3)C2C(=O)N1c1ccc(F)c(Cl)c1 (stereo not drawn),-10,-11
O=C(Nc1ccccc1)c1cccc(CN2CCN(c3cnccn3)CC2)c1,-3,-5
CCn1nccc1C(=O)N(CCCN(C)C)c1nc2ccc(F)cc2s1,3,7
CC1=NC2=C(C(=O)CC(c3ccccc3)C2)C(c2ccc3c(c2)OCO3)C1C(=O)OC1CCCCC1 (stereo not drawn),-6,-8
COCCOc1nc(-c2ccc(F)cc2)n(-c2ccc(NC(=O)Nc3cccc(Cl)c3)cc2)n1,-6,-5
COc1cccc(CC2(CO)CCCN(Cc3cccc(C(C)=O)c3)C2)c1 (stereo not drawn),-7,-12
CC(C)COc1nc(-c2cccc(C(F)(F)F)c2)n(-c2ccc(NC(=O)C3CCC3)cc2)n1,18,24
O=c1oc(-c2cccs2)nn1Cc1noc(-c2ccccc2Cl)n1,-8,-9
CCOC(=O)C1(Cc2ccc(Cl)cc2)CCN(C2CCCC2)CC1,5,4
O=C(NNc1nc(N2CCOCC2)nc(N2CCOCC2)n1)Nc1ccc(Cl)cc1,-10,-19
O=C(Cn1ncccc1=O)Nc1nccs1,-1,-2
CCc1nnsc1C(=O)N(C)CCc1nc2c(C)cccc2[nH]1,2,2
O=S(=O)(c1cccc2nsnc12)N1CCN(C(c2ccccc2)c2ccc(Cl)cc2)CC1 (stereo not drawn),2,-1
CCc1ccc(CN(C)C(=O)c2ccc(CSC)o2)nc1,2,0
Cc1cccc(C)c1OCC(=O)N(C)Cc1ccc(O)cc1,-3,-5
Cc1nc(CNC(=O)c2cc(I)c[nH]2)no1,9,1
Cc1c(C(=O)N2CC(C)OC(C)C2)oc2c1ccc1ccccc12 (stereo not drawn),2,7
CCC(NC(=O)Cc1cc(F)ccc1C)c1ccccn1 (stereo not drawn),2,0
CN(CCO)c1ccc(-c2nccn2-c2ccc3cn[nH]c3c2)cc1,16,5
CC(C)c1ccc(C2CC(=O)C=C(Nc3nonc3N)C2)cc1 (stereo not drawn),0,18
CCCOc1ccc(C(=O)N2CCCC2c2nnc3c(C(F)(F)F)cccn23)cc1 (stereo not drawn),-5,-10
CCC(C)N(Cc1cc(Cl)ccc1OCc1nc(CO)cs1)C(=O)c1cccc(C(F)(F)F)c1 (stereo not drawn),10,10

# Next records:
SMILES,NPYLR7 agonist,NPYLR7 agonist max-min
Cc1ccc2nc(NC(=O)Cn3ccccc3=O)sc2c1,-1,-2
COC(=O)C1=C(C)NC2=C(C(=O)CC(c3ccccc3)C2)C1c1ccc(F)cc1 (stereo not drawn),5,3
O=C(N1CCC(n2c(=O)oc3ccc(F)cc32)CC1)C(Cl)(Cl)Cl,7,4
O=C(NCc1cc(C(F)(F)F)ccc1Cl)c1cncn1-c1cccc(-c2ccccc2C(F)(F)F)c1,-9,-14
O=C(O)c1ccc(S(=O)(=O)Nc2cccc(F)c2)c(F)c1,-11,-16
COc1ccccc1-c1nc2cc(C)ccn2c1NC(=O)CC(C)(C)C,-11,-9
CN(Cc1nccn1CC(F)(F)F)S(=O)(=O)c1cccc2nsnc12,0,-3
Cn1nc(-c2cccs2)cc1C(=O)N1[C@@H]2CC[C@H]1CNC(=O)C2,2,0
CC(C)(C)OC(=O)N1CCCC1=S,-4,-5
O=C(Oc1coc(CSc2ncccn2)cc1=O)c1cc(Br)ccc1Cl,-12,-10
COc1ccc(CC2(CCC(=O)N3CCN(c4ccccc4)CC3C)CCC(=O)N2)c(F)c1 (stereo not drawn),18,3
CC(=O)/C=C/C1=CC(C)(C)COc2ccc(O)cc21,4,15
COC(=O)c1ccc(NC(=O)N2CCCC(Nc3ccc(OC)c(OC)c3)C2)cc1 (stereo not drawn),16,5
CC(=O)Nc1ccc(Cl)c(C(=O)NCCSc2ccccn2)c1,10,0
CCS(=O)(=O)c1ccc(-c2cc(O)cc(CCC3CCCCN3)c2)s1 (stereo not drawn),1,-1
CCN(c1ccc(C(=O)CN2C(=O)NC(C)(c3ccc(Cl)cc3)C2=O)cc1)S(C)(=O)=O (stereo not drawn),9,8
NC(=O)c1cccnc1N1CCOC(C(F)(F)F)C1 (stereo not drawn),5,-4

# These rows are one share of the data; the hit share may differ from the screen's.
